Screens from PubChem.
Polio RdRp inh = inhibitors of poliovirus RNA polymerase binding and polymerization | 0.66% of 150,000 active | poliovirus polymerase elongation, fluorescence polarization; active compounds read low | P03300 | AID 588519 | % elongation, % (compound at 16.7 µg/mL); in the data active = % elongation below about 90%; also: some results filed as inactive read as strong as hits
Target sequence (P03300 1749-2209 limits assumed): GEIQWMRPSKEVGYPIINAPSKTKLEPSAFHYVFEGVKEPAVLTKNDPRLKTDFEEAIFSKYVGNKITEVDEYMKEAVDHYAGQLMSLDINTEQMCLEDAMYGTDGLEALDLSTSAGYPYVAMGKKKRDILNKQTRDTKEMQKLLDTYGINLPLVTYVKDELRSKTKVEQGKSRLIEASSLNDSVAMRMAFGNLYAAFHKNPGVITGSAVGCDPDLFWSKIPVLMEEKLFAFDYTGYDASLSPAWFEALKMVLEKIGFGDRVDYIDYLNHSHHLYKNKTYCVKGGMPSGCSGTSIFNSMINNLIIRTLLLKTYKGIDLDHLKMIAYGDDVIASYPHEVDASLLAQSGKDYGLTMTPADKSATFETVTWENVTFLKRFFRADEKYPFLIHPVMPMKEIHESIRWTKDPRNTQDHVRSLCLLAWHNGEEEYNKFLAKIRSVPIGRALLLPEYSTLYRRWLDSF
Polio RdRp inh intensity = second read-out of Polio RdRp inh, no call of its own (marks repeat the call); % elongation; measured here: total intensity read-out; formula for this scale not given here;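 total fluorescence in place of polarization; lower means less elongation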
* = called active by the depositor. This is a subset; rates above refer to the full screens.

mol	Polio RdRp inh	Polio RdRp inh intensity
COc1cccc(C(=O)Nc2cccc(OCc3cc(=O)n4cccc(C)c4n3)c2)c1	104	100
O=C(Cn1c(-c2cccs2)cc2cc(F)ccc21)N1CCN(c2ccccc2)CC1	111	113
CN(C)c1ccc(NC(=O)Cn2c(SCc3ccc(F)cc3)nc3ccncc32)cc1	102	104
CN(C)c1ccc(NC(=O)c2sc3nc4c(cc3c2N)N2CCC4CC2)cc1	103	104
CC(C)Oc1ccc(CNC(=O)Cn2nc(N3CCN(c4ccccc4)CC3)ccc2=O)cc1	101	103
COc1cc(C2CC(=O)Oc3c2c(=O)[nH]c2ccccc32)cc(OC)c1OC (stereo not given)	106	107
CCN1CCN(C(c2ccccc2Cl)c2sc3nc(-c4ccco4)nn3c2O)CC1 (stereo not given)	102	103
COc1ccc(N2CCN(CCCNC(=O)c3sc4ncccc4c3-n3cccc3)CC2)cc1	104	114
CCOc1ccc(NC(=O)CN2CCN(CC(=O)Nc3ccc(OC)cc3)CC2)cc1	107	107
COC(=O)c1cnn(-c2ccc(C(=O)Nc3cc(OC)c(OC)c(OC)c3)cc2)c1N	101	103

Six compounds picked at random from those above, as already listed:
mol	Polio RdRp inh	Polio RdRp inh intensity
COc1ccc(N2CCN(CCCNC(=O)c3sc4ncccc4c3-n3cccc3)CC2)cc1	104	114
CCOc1ccc(NC(=O)CN2CCN(CC(=O)Nc3ccc(OC)cc3)CC2)cc1	107	107
CCN1CCN(C(c2ccccc2Cl)c2sc3nc(-c4ccco4)nn3c2O)CC1 (stereo not given)	102	103
COc1cc(C2CC(=O)Oc3c2c(=O)[nH]c2ccccc32)cc(OC)c1OC (stereo not given)	106	107
CN(C)c1ccc(NC(=O)c2sc3nc4c(cc3c2N)N2CCC4CC2)cc1	103	104
O=C(Cn1c(-c2cccs2)cc2cc(F)ccc21)N1CCN(c2ccccc2)CC1	111	113

Other entries follow.
mol	Polio RdRp inh	Polio RdRp inh intensity
NCc1nc2cccnc2n1Cc1ccccc1Cl	110	112
Cc1nc2nc(CNC(=O)c3cccc(F)c3)nn2c(C)c1CCC(=O)Nc1ccc(F)cc1	108	107
O=C(NCc1ccc(Cl)cc1)NC1COc2ccccc2C1 (stereo not given)	94	98
COc1ccc(NC(=O)C(NS(=O)(=O)c2cccc3nsnc23)C(C)C)cc1 (stereo not given)	104	108
COc1ccc(-c2nc3sc(CCNC(=O)c4ccc(C(C)(C)C)cc4)c(C)n3n2)cc1	103	100
O=C(c1ccc(Cl)cc1)N(Cc1ccco1)Cc1ccco1	106	97
CC(C)(C)c1ccc2c(c1)N(CC(=O)NCCCN1CCN(c3ccccc3F)CC1)C(=O)CO2	112	115
COc1ccc(NC(=O)CSc2nc3ccccc3c(=O)n2CCC(=O)NC2CCCCC2)c(OC)c1	103	108
COc1ccccc1CNC(=O)c1ccc2c(c1)N(Cc1cc(C)ccc1C)C(=O)c1ccccc1S2	114	117
COc1cccc(NS(=O)(=O)c2ccc3c(c2)CCCN3C(=O)C2CCC2)c1	111	105

Next section
mol	Polio RdRp inh	Polio RdRp inh intensity
COc1cc(NC(=O)CN2c3ccccc3S(=O)(=O)c3ccccc32)cc(OC)c1	103	113
COc1ccc(NC(=O)CSc2oc(-c3cccs3)nc2S(=O)(=O)c2ccccc2)c(OC)c1	103	105
Cc1nnc(NC(=O)CSc2nnc3c(n2)[nH]c2ccccc23)s1	101	104
COc1cc(OC)c(NC(=O)CCc2c(C)nc3cc(-c4ccccc4OC)nn3c2C)cc1Cl	110	107
Cc1nn(C(=O)c2cccc(Cl)c2)c(C)c1S(=O)(=O)N1CCOCC1	111	112
Cc1ccc(-c2onc(C)c2C)cc1S(=O)(=O)Nc1ccc(Cl)cn1	108	113
Cc1ccc(-n2c(=O)c3c(C)c(C(=O)N(C)C)sc3n(CC(=O)N(C)c3ccccc3)c2=O)cc1C	104	105
Cc1ccccc1-n1nc(C)c2c1NC(=O)CSC2c1ccc(N(C)C)cc1 (stereo not given)	115	115
Cc1cccc(CNC(=O)c2oc3c(c2C)-c2nn(Cc4ccccc4Cl)cc2CC3)c1	103	111
COc1ccc(C(=O)c2cn(Cc3ccccc3F)c3cc4c(cc3c2=O)OCO4)cc1	107	107

Additional records.
mol	Polio RdRp inh	Polio RdRp inh intensity
Cc1oc(-c2cccc(Cl)c2)nc1CN1CCC(C(=O)NC(C)c2ccccc2)CC1 (stereo not given)	109	112
CC(C)CC(=O)Nc1ccccc1OCc1cc(=O)n2ccccc2n1	100	107
CCN(c1ccccc1)S(=O)(=O)c1cc(C(=O)Nc2ccc(Br)cc2)ccc1F	103	98
Cc1ccc(CN2CCN(C3CCNCC3)C(=O)C2=O)cc1	113	112
COc1cc(OC)c(NC(=O)Cn2cnc3sc(C)c(S(=O)(=O)N4CCC(C)CC4)c3c2=O)cc1Cl	108	109
COc1ccc(NC(=O)Cn2nnc(C(=O)Nc3ccc(F)c(Cl)c3)c2N)cc1OC	102	107
COc1ccc(Cl)cc1NC(=O)CCN1C(=O)c2ccccc2Sc2ncccc21	107	112
COC(=O)c1cc2sc(C)cc2n1Cc1cccc(OC)c1	109	111
O=C(NC1CCCC1)c1ccc(CSc2nc3cccnc3n2Cc2cccc(F)c2)cc1	115	112
Cc1ccccc1NC(=O)c1sc2nc3c(cc2c1N)CCCC3	114	115

(list continues)
mol	Polio RdRp inh	Polio RdRp inh intensity
Cc1nc2c(C(=O)O)cnn2c(C)c1Cc1ccccc1	109	95
Cc1ccc(Cl)cc1NC(=O)CCCn1c(=O)c2cccn2c2cccnc21	102	103
O=C(Nc1ccccc1C(F)(F)F)c1cc2nc(-c3ccccc3)cc(-c3ccccc3)n2n1	101	105
COC(=O)c1cc(NC(=O)CCc2c(C)nc3c(c(C)nn3C(C)(C)C)c2C)cc(C(=O)OC)c1	104	104
Cc1ccc(-n2c(SCC(=O)NCc3ccccc3)nc3n[nH]c(C)c3c2=N)cc1Cl	109	111
Cc1ccc(NC(=O)Cn2c(=O)oc3cc(S(=O)(=O)N4CCCC4)ccc32)cc1F	103	106
O=C(Nc1cc(Cl)ccc1Cl)c1cc(S(=O)(=O)N2CCCc3ccccc32)ccc1F	111	111
CCN(C(=O)CCc1nc(-c2ccc(C)cc2)no1)c1cccc(C(F)(F)F)c1	103	99
CCOC(=O)N1CCc2c(sc3c2c(=O)n(Cc2ccccc2)c(=O)n3CC(=O)Nc2cccc(CC)c2)C1	107	111
Cc1nc2c(C(=O)NCCc3ccc(Cl)cc3)cnn2c(C)c1Cc1ccc(F)cc1	108	113

The listing continues.
mol	Polio RdRp inh	Polio RdRp inh intensity
CCN(CC)C(=O)C1CCCN(c2ncnc3c2nc2n3CCCCC2)C1 (stereo not given)	106	110
CC(=O)N1CCCc2cc(S(=O)(=O)N(C)CC(=O)Nc3ccc(C)cc3C)ccc21	108	113
CCOC(=O)c1cc2c(=O)n3ccccc3nc2n(CCOC)c1=NC(=O)c1cc2ccccc2o1	108	108
CC(=O)c1ccc(N2CCN(c3ncnc4onc(C)c34)CC2)cc1	109	105
O=C(C1CCN(S(=O)(=O)c2ccc(Br)s2)CC1)N1CCN(c2cccc(Cl)c2)CC1	112	112
COc1ccccc1CNC(=O)C(Cc1ccccc1)NS(=O)(=O)c1ccc2c(c1)oc(=O)n2C (stereo not given)	106	106
Cc1c(C(=O)N(C)C)sc2c1c(=O)n(-c1ccccc1C(F)(F)F)c(=O)n2Cc1ccccc1C#N	109	114
CCc1cc(=O)oc2c(C)c(OCC(=O)Nc3ccc(S(=O)(=O)N(CC)CC)cc3)ccc12	112	115
Cc1ccc(CN2c3ccccc3-c3nc(SCC(=O)NCCc4ccccc4)ncc3S2(=O)=O)cc1	106	111
COc1ccc(NC(=O)CSc2c3c(nc4ccc(Cl)cc24)CCCC3)cc1Cl	98	99

Look-ups from the entries so far.
Result of `O=C(NCc1ccc(Cl)cc1)NC1COc2ccccc2C1` (stereo not given) in Polio RdRp inh: 94
Result of `COc1cc(C2CC(=O)Oc3c2c(=O)[nH]c2ccccc32)cc(OC)c1OC` (stereo not given) in Polio RdRp inh: 106

Other compounds follow.
mol	Polio RdRp inh	Polio RdRp inh intensity
O=c1cc(-c2ccccc2)n2c(SCc3cccc([N+](=O)[O-])c3)nnc2[nH]1	109	108
COc1cccc(-c2cc(C(=O)Nc3ccc4c(c3)OCO4)no2)c1	107	109
Cc1ccc(C)c(CN2C(=O)C3(c4ccccc42)N(c2cccc(C(F)(F)F)c2)C(=O)CS3(=O)=O)c1 (stereo not given)	108	113
CN1CCN(CCCNC(=O)Cn2c(-c3cccs3)cc3ccccc32)CC1	107	103
COc1ccc2c(c1)sc1ncc(C(=O)NCc3ccccc3F)c(=O)n12	110	114
Cc1ccc(CSc2nc3cc(C(=O)NC4CCCC4)ccc3c(=O)n2Cc2ccccc2)cc1	104	114
Cc1ccc(C)c(N2CCN(C(c3ccc(F)cc3)c3nnc(-c4ccccc4)o3)CC2)c1 (stereo not given)	103	103
Cc1cccc(NC(=O)CSc2ncc3c(n2)-c2cc(Cl)ccc2N(C)S3(=O)=O)c1C	110	107
CC(Oc1ccccc1)C(=O)Nc1ccccc1C(=O)OCc1cc(=O)n2nc(C3CC3)sc2n1 (stereo not given)	104	99
Cc1ccc(C(=O)Nc2ccc(S(=O)(=O)N(Cc3ccccc3)c3ccccc3)cc2)cc1	104	111

The list goes on.
mol	Polio RdRp inh	Polio RdRp inh intensity
O=S(=O)(NCCS(=O)(=O)N1CCN(c2ccccc2)CC1)c1ccccc1	101	105
COc1ccc(CNC(=O)c2ccc3nc(CCc4ccccc4)oc3c2)cc1	111	109
CCc1nn(CCCC(=O)N2CCN(c3cccc(OC)c3)CC2)c(=O)c2cc3occc3n12	108	105
CN(C)S(=O)(=O)N1CCC(N2CCN(Cc3ccc(F)cc3)C(=O)C2=O)CC1	117	113
COC(=O)CC(=O)CSc1nc2cc(C(=O)NC(C)C)ccc2c(=O)n1CCc1ccccc1	112	115
Cc1ccc(Cn2c(CNS(=O)(=O)c3cccc([N+](=O)[O-])c3)nc3cccnc32)cc1	108	106
CNS(=O)(=O)c1cn(CC(=O)N2CCN(c3ccccc3OC)CC2)cc1S(=O)(=O)NC	101	105
COc1ccccc1N1CCN(C(=O)C2CCN(S(=O)(=O)c3c(C)noc3/C=C/c3ccc(C)cc3)CC2)CC1	101	105
Cc1ccc(-n2cc(-c3ccccc3)c3c(N4CCC(C)CC4)ncnc32)cc1Cl	110	112
CCN(CC)C(=O)c1ccc(NC(=O)CCn2nc(-c3ccc(Cl)cc3)c3ccccc3c2=O)cc1	107	108

The list goes on:
mol	Polio RdRp inh	Polio RdRp inh intensity
CC1CCCN(CCCNC(=O)c2cn(C)c3ccc(S(=O)(=O)N(C)C4CCCCC4)cc3c2=O)C1 (stereo not given)	104	108
CCc1ccccc1NC(=O)C1CCN(c2nn3c(=O)cc(C)nc3s2)CC1	106	107
COc1ccccc1OCCn1c(NC(=O)c2ccccc2)nc2ccccc21	108	108
Fc1ccc(-c2noc3ncnc(NCC4CCN(Cc5ccc(Cl)cc5)CC4)c23)cc1	117	112
COc1ccc(CNC(=O)CCc2c(C)nc3c(c2C)c(=O)n(C)c(=O)n3C)cc1	106	104
CC(=O)N1CCc2c(sc3c2c(=O)n(-c2ccc(C)cc2)c(=O)n3Cc2c(F)cccc2Cl)C1	103	106
Cc1ccc2cc3c(N)nn(C(=O)c4cccc(F)c4)c3nc2c1	108	110
Cc1ccc(/C=C/c2onc(C)c2S(=O)(=O)N2CCC(C(=O)N(CCC(C)C)Cc3ccco3)CC2)cc1	107	107
O=C(Cn1ncc2c3ccccc3n(Cc3ccc(Cl)cc3)c2c1=O)N1CCCCCC1	126	138
CCOC(=O)c1cccc(NC(=O)c2cc3cc4cc(OC)ccc4nc3s2)c1	115	115

Later entries.
mol	Polio RdRp inh	Polio RdRp inh intensity
COCc1cc(C)n(CC(=O)Nc2cccc(C(C)=O)c2)c(=O)c1C#N	107	110
CCC1CCCCN1S(=O)(=O)c1cc(C(=O)Nc2ccc(C)c(F)c2)ccc1F (stereo not given)	115	117
COc1ccc(NC(=O)Nc2nnc(N3CCCC3)s2)cc1	103	106
CCn1cc(C(=O)NCCc2ccccc2)c(=O)c2cc(S(=O)(=O)N(C)C3CCCCC3)ccc21	107	106
Cc1ccccc1Cn1nnc2c(=O)[nH]c(C3CCN(C(=O)c4ccccc4Cl)CC3)nc21	104	108
COc1ccc(CCNc2oc(/C=C/c3ccc(OC)c(OC)c3)nc2C#N)cc1	111	106
CC(=O)c1ccc(N2CCN(S(=O)(=O)c3cc4[nH]c(=O)c(=O)[nH]c4cc3C)CC2)cc1	103	107
CCOc1ccc(NC(=O)c2cc(S(=O)(=O)N3CCC(C)CC3)cn2C)cc1	112	100
CCOc1ccc(C2CC(=O)n3nc(-c4ccc(C)cc4)nc3S2)cc1 (stereo not given)	104	107
CCOc1cc(C2C(C(N)=O)=C(C)Nc3ncnn32)cc(Br)c1O (stereo not given)	110	113

New compounds follow
mol	Polio RdRp inh	Polio RdRp inh intensity
Cc1ccc(Cl)cc1NC(=O)CN1C(=O)c2ccccc2Sc2ncccc21	107	114
Cc1ccc(C(=O)Nc2ccc(C(=O)O)cc2)cc1S(=O)(=O)Nc1ccccc1	104	104
COc1ccc(NC(=O)c2c(NC(=O)c3ccc(Br)cc3)sc3c2CCCC3)cc1	98	92
Cc1cc(C)cc(N2CCn3c2nc2c3c(=O)n(C/C=C/c3ccccc3)c(=O)n2C)c1	110	106
Cc1cc(Nc2cccc(Cl)c2)nc2ccc(NC(=O)c3ccc(F)cc3Cl)cc12	109	112
CCOC(=O)c1nnn(C(CC)C(=O)Nc2ccc(F)cc2)c1C(=O)OCC (stereo not given)	114	115
CCOc1ccc(-c2nonc2NC(=O)c2oc3ccc(C)cc3c2C)cc1OCC	104	103
CCc1ccc(NC(=O)CN2C(=O)C(c3ccc(F)cc3)=NC2(C)C)cc1	108	110
CC1CCN(S(=O)(=O)c2ccc3nc(Nc4cccc(F)c4)ccc3c2)CC1	104	104
Cc1cc(C)c(NC(=O)C(C)n2nnc3sc4c(c3c2=O)CCCC4)c(C)c1 (stereo not given)	98	102
